# VACV mCherry inh = inhibitors of vaccinia virus infection (mCherry reporter signal); Vaccinia virus mCherry reporter infection, fluorescence; about a quarter of the inactives have no number; Potency, µM (series often up to 36.5 µM), for inactives: top-dose activity change, negative = inhibition, actives largely listed as inhibitors; hit rate 0.63% among 310,000; active = well fitted inhibition curve with a large enough effect; inconclusive = small, poorly fitted or top-dose-only effect; inactive = no such curve, though single readings can be large or run the other way; tested in A549 cells; note: nearly all actives have a fitted effect of over 35% in size; inactives centre near -10
# Vaccinia Venus = inhibitors of vaccinia virus (Venus reporter) | Vaccinia virus Venus reporter expression, fluorescence | Potency, µM (top dose mostly 36.5 µM), for the others: at the highest dose activity change, negative = inhibition, most hits filed as inhibitors | hit rate 0.46% among 330,000; active means well fitted inhibition curve with a large enough effect; inconclusive means small, poorly fitted or top-dose-only effect; inactive means no such curve, though single readings can be large or run the other way; tested in A549 cells; note: nearly all actives have a fitted effect of over 30% in size; inactives centre near -10
# An asterisk follows results filed as active; i = inactive; ? = inconclusive; nt = no result given; [ ] = dose if it differs, or a comment. % is set by controls: 0 for no effect and ±100 for the full control effect; potency is the fitted concentration of half-maximal effect.
SMILES,VACV mCherry inh,Vaccinia Venus
COc1ccc(Cl)cc1NC(=O)CCc1c(C)nc2c(c1C)c(=O)n(C)c(=O)n2C,-0.8%,9.2%
COc1cccc(C(=O)N=c2sc3cc(S(C)(=O)=O)ccc3n2C)c1,-11.4%,-14.2%
Cc1cccc(NC(=O)/C=C/c2ccc([N+](=O)[O-])s2)c1,-21.7%,-2.9%
Cc1cc(C)n(C(=O)CCNC(=O)c2ccccc2Br)n1,nt,-4.6%
COc1ccc(C2c3[nH]c4ccccc4c3CCN2Cc2cccn2-c2ncccn2)cc1C (configuration not stated),-3.4%,-1.5%
COc1cc([C@H]2[C@@H]3CCCC[C@]3(O)CCN2CC(=O)Nc2ccc(C)cc2C)ccc1O,-24.2%,-18.6%
COc1cc2nc(SCc3ccc(C)cc3)n3nc(CCn4nc(C)cc4C)nc3c2cc1OC,-12.8%,-0.1%
CCOCc1nnc(NC(=O)c2c(-c3ccccc3)noc2C)s1,i,-0.2%
CCOC(=O)C(CCCOc1cccc(CC)c1)C(=O)OCC,-13.7%,-5.7%
CNS(=O)(=O)c1cn(CC(=O)Nc2ccc(OC)c(Cl)c2)cc1S(=O)(=O)NC,-15.8%,-10.7%
O=C(Nc1ccc(F)cc1)C(CCc1ccccc1)N1CCN(Cc2c(F)cccc2Cl)CC1 (configuration not stated),-9.8%,-23.1%
Cn1c(O)c(C=NC2CCCCC2)c(=O)[nH]c1=S,-14.3%,-17.7%
COc1ccc(/C=N/n2cnnc2SCCO)cc1OC,-13.0%,-3.6%
O=C(NCc1cccc(F)c1)c1ccc2nc(CCc3ccccc3)oc2c1,?,-18.8%
Cc1ccc(-n2c(SCC(=O)NCC3CCCO3)nc3ccccc3c2=O)cc1C (configuration not stated),i,-15.5%
O=C(Nc1ccc2c(c1)nc1n2CCN(C2CCCCC2)C1)c1ccco1,-13.8%,-11.6%
O=C(CCn1c(=O)sc2ccccc21)Nc1cccnc1,i,-6.3%
COc1ccccc1-c1cnc(C(O)c2ccc(CN3CCCCC3)cc2)[nH]1 (configuration not stated),i,-13.3%
CCCCn1c(O)c(C=NCCCN(C)C)c(=O)[nH]c1=O,nt,-18.4%
Cc1ccc(C)c(NC(=O)CSc2ncc3c(n2)-c2ccc(Cl)cc2N(C)S3(=O)=O)c1,-3.0%[7.34 µM],-0.5%[7.34 µM]

# Reprinted from the part before: two entries; new compounds follow.
SMILES,VACV mCherry inh,Vaccinia Venus
CCCCn1c(O)c(C=NCCCN(C)C)c(=O)[nH]c1=O,nt,-18.4%
Cc1ccc(C)c(NC(=O)CSc2ncc3c(n2)-c2ccc(Cl)cc2N(C)S3(=O)=O)c1,-3.0%[7.34 µM],-0.5%[7.34 µM]
C(=Cc1cnc2ccccc2n1)c1ccc2c(c1)OCO2,?,-24.7%
Nc1cc(N)cc(Cc2ccccc2)c1,32.3%[activator],-4.4%
Cc1ccc(S(=O)(=O)n2nc(C)c(S(=O)(=O)N3CCCCCC3)c2C)cc1C,12.1%,2.5%
CCCn1c(C(C)NC(=O)c2ccccc2)nc2ccccc21 (configuration not stated),i,-13.6%
CC(=O)Nc1ccc(-n2nnnc2SCC(=O)NCc2cccs2)cc1,i,-10.0%
Cc1ccc(-n2ncc3c(=O)n(-c4ccc(C)c(C)c4)c(C)nc32)cc1,-11.1%,-10.7%
Cc1ccc(-c2nnc(CSc3nnc(COc4cccc5ccccc45)n3-c3ccccc3)o2)cc1,?,?
CN(C)S(=O)(=O)c1cccc(NC(=O)CSc2ncnc3ccccc23)c1,?,?
CCN(CC(=O)Nc1ccc(NC(C)=O)cc1)C(=O)c1cccc(S(=O)(=O)N2CCc3ccccc3C2)c1,i,-19.4%
Nc1sccc1C(=O)c1ccccc1,-7.9%,2.3%
Cc1nn(CC(C)C)c(Cl)c1C(=O)NC1CCC(C)CC1 (configuration not stated),i,-14.5%
CN1CCN(S(=O)(=O)c2cccc(C(=O)NC3(C)CCS(=O)(=O)C3)c2)CC1 (configuration not stated),-16.2%,-10.9%
O=C(c1ccccc1)N1CCN(C(=O)c2cc3ccccc3oc2=O)CC1,-0.2%,-1.8%
CC1CC(C)CN(C(=O)c2ccc3c(c2)OCCO3)C1 (configuration not stated),-10.1%,3.6%
COc1cc(=O)n2c(c1C(=O)NC(C)c1ccco1)CCN(C(=O)c1ccc3c(c1)OCCO3)CC2 (configuration not stated),-7.8%,-5.8%
Cc1cc(F)ccc1S(=O)(=O)Nc1ccc2oc3c(c2c1)CC(C)CC3 (configuration not stated),-19.7%,-16.4%
Cc1ccc(-c2nc3cccnc3s2)cc1NC(=O)c1ccco1,5.8%,-14.3%
CSc1ccc(N/N=C(/C#N)S(=O)(=O)C(C)(C)C)cc1,-5.0%,-13.2%
CN(Cc1ccccc1)S(=O)(=O)c1ccc(C(=O)Nc2nnc(C3CC3)o2)cc1,?,-22.0%
CC(C)(C)c1csc(NC(=O)Cn2c(=O)oc3ccccc32)n1,nt,-27.1%
CCCN1CCN(c2ncnc3c2nnn3Cc2ccccc2)CC1,?,-16.9%
CCOc1ccc(CCNC(=O)c2c(C)oc3ncn(C)c(=O)c23)cc1,i,-18.8%
Cc1cc(NC(=O)C2C3C(=O)N(Cc4ccc(Cl)cc4)C(C(=O)NC(C)(C)C)C34C=CC2(C)O4)no1 (configuration not stated),i,-16.6%
COc1ccc(/C=C2/NC(=O)N(CC(=O)Nc3cccc(C)c3)C2=O)cc1O,-14.8%,-3.0%
COc1ccc(OC)c(-c2nnc3n(Cc4ccc(C)cc4)c(=O)c4ccccc4n23)c1,-13.2%,4.8%
O=C(COc1ccc([N+](=O)[O-])cc1)Nc1ccc(N2CCCC2)cc1,-14.7%,-15.1%
CCC1=Nc2cc(C(=O)NCCc3ccccc3)ccc2Sc2ccc(Cl)cc21,-25.2%,-27.6%
COc1ccc(S(=O)(=O)Nc2ccc3c(c2)OCO3)cc1Cl,-13.1%,-16.6%
O=C1N/C(=C/c2cccn2-c2ccccc2)C(=O)N1Cc1ccccc1F,-14.2%,-7.8%
CCOC(=O)C1(C)CCCN1C(=O)c1ccc(OC)cc1 (configuration not stated),10.0%,-6.0%
CCOc1ccccc1CN1CCN(Cc2cn(C)nc2-c2ccccc2)CC1CCO (configuration not stated),?,-6.3%
CCOc1cccc(NC(=O)c2cnccc2C(F)(F)F)c1,-11.6%,0.3%
O=C(Cn1cnc2ccccc2c1=O)Nc1ccc(S(=O)(=O)N2CCCC2)cc1,-12.3%,-9.8%
Cc1ccc(N(CC(=O)NC2CCCC2)C(=O)Cn2nnc(-c3ccccc3F)n2)cc1,i,-4.1%
COc1cc(S(=O)(=O)NCC2(N3CCCCC3)CCCCC2)ccc1NC(C)=O,-9.4%,-5.4%
C[C@H](CO)N1C[C@H](C)[C@@H](CN(C)Cc2ccc3c(c2)OCO3)Oc2c(NC(=O)C3CCCCC3)cccc2C1=O,i,?
Cc1c(OC(C)C(=O)N[C@H](C(=O)O)c2ccccc2)ccc2c3c(c(=O)oc12)CCCC3 (some centres not stated),-7.6%,-7.5%
O=C(Nc1ccccc1C(=O)Nc1ccccc1)c1cccs1,i,-16.2%
O=C(Cn1nc(-c2ccccc2)ccc1=O)N1CCCCC1,i,-7.1%
CCCOc1ccc(C(=O)Nc2ccc(N3CCN(C(=O)c4ccco4)CC3)cc2)cc1,i,-12.6%

# Overlap with the part before: five compounds; new compounds follow.
SMILES,VACV mCherry inh,Vaccinia Venus
C[C@H](CO)N1C[C@H](C)[C@@H](CN(C)Cc2ccc3c(c2)OCO3)Oc2c(NC(=O)C3CCCCC3)cccc2C1=O,i,?
Cc1c(OC(C)C(=O)N[C@H](C(=O)O)c2ccccc2)ccc2c3c(c(=O)oc12)CCCC3 (some centres not stated),-7.6%,-7.5%
O=C(Nc1ccccc1C(=O)Nc1ccccc1)c1cccs1,i,-16.2%
O=C(Cn1nc(-c2ccccc2)ccc1=O)N1CCCCC1,i,-7.1%
CCCOc1ccc(C(=O)Nc2ccc(N3CCN(C(=O)c4ccco4)CC3)cc2)cc1,i,-12.6%
Cc1cccc(C(C(=O)NCc2ccc(F)cc2)N(C(=O)c2csnn2)C2CC2)c1 (configuration not stated),-6.3%,-1.9%
Cc1cc(C)nc(NC(=O)C(c2ccccc2)c2ccccc2)n1,i,-8.5%
COc1cc(OC)cc(C(=O)Nc2ccc(S(=O)(=O)Nc3cc(C)on3)cc2)c1,-14.8%,-6.6%
Cc1ccc2nc(-c3ccc(N)cc3)sc2c1,?,?
O=C(NNc1c(Cl)cncc1Cl)c1sccc1Cl,-13.0%,-16.9%
Cc1cccc(CN2CCc3c(OCC(=O)N4CCCc5ccccc54)cccc3C2=O)c1,?,?
COc1ccc(OC)c(NC(=O)[C@H](CSCc2ccccc2)N2Cc3ccccc3C2=O)c1,-15.2%,-7.5%
CCOC(=O)C1CCCN(C(=O)c2cc(-c3ccc(C)cc3)on2)C1 (configuration not stated),i,-8.0%
Cc1ccc(CC#N)c(-c2c(CC#N)ccc(C)c2C)c1C,-4.1%,-7.4%
CC(C)(C)n1nnnc1C(c1cccs1)N(Cc1ccccc1)Cc1ccco1 (configuration not stated),-10.2%[1.46 µM],?
O=C1NC(=O)/C(=C\c2ccc(OCc3cnc(Cl)s3)cc2)S1,-4.2%,-6.7%
CC(=O)c1ccc(-c2cc(F)cc3c2OC(CNC(=O)Cc2cn4ccsc4n2)C3)s1 (configuration not stated),-14.1%,3.4%
CN(C)/C=C1\C(=O)N(c2ccc(Cl)c(Cl)c2)CS1(=O)=O,-24.3%,-4.4%
CN(C)/C=C1/Sc2ccccc2C1=O,i,-15.8%
CCOP(=O)(OCC)C(NC(=O)C(C)C)C(Cl)(Cl)Cl (configuration not stated),i,-16.8%
O=C1NC(c2ccccc2)CCC1(Cl)Cl (configuration not stated),i,-2.3%
O=C(c1ccccc1)c1ccc2nc(N3CCN(C(=O)c4ccco4)CC3)c3nncn3c2c1,-22.3%,-27.4%
COCCNC(=O)C1(C)CCCN(C(=O)c2ccc(-c3ccccc3)cc2)C1 (configuration not stated),12.5%,-10.7%
Nn1cc(-c2ccccc2)nc1SCC(=O)Nc1cccc(S(N)(=O)=O)c1,8.7%,-0.6%
CN(CC(=O)Nc1ccccc1Br)C(=O)c1ccncc1,-3.8%,-9.9%
CC(C)[C@@H]1Cc2[nH][nH]c(=O)c2[C@H](C(C)C)O1,40.0%[activator],-5.9%
CC1=C(c2ccc(C)cc2)S(=O)(=O)N(Cc2ccc(C(=O)Nc3ccc(C)c(F)c3)cc2)C1=O,-6.3%,-16.2%
CCCC1CC(c2csc(N)n2)CCO1 (configuration not stated),nt,-2.5%
O=C(c1ccc(Oc2ccc([N+](=O)[O-])cc2Cl)cc1)N1CCCC1,-18.1%,5.9%
NS(=O)(=O)c1ccc(N2N=C(c3ccccc3)CC2c2cccc(Cl)c2)cc1 (configuration not stated),-19.7%,?
O=C(Nc1c(C(=O)N2CCN(c3ccccc3)CC2)oc2ccccc12)c1ccccc1F,-17.0%,0.3%
Cn1c(/N=C/c2ccc3c(c2)OCO3)nc2ccccc21,i,-8.8%
CCOc1ccc(N=C2NC(=O)S/C2=C\c2ccc(OC)cc2)cc1,i,-9.7%
O=C(CCCCCCN1C(=O)c2ccccc2C1=O)Nc1nccs1,?,?
CCOc1ccc(NC(=O)CCN2CCN(S(=O)(=O)c3cc(Cl)ccc3OC)CC2)cc1,nt,?
Cc1ncc2c(c1CNC(=O)c1ccsc1)CCN(C(=O)c1c(F)cccc1Cl)C2,32.5%[activator],54.5%[activator]
CC1CN(c2oc(Cc3cccc4ccccc34)nc2C#N)CC(C)O1 (configuration not stated),-15.7%,-11.5%
Cc1cc(C)c(C#N)c(SCC(=O)Nc2ccc(S(=O)(=O)Nc3onc(C)c3C)cc2)n1,i,-6.7%
[N-]=[N+]=NCC1OC(n2cnc3c(=O)[nH]c(N)nc32)C(O)C1O (configuration not stated),-19.1%,-23.5%
O=C(c1ccco1)N1CCCC(c2nc3c(nnn3Cc3ccccc3)c(=O)[nH]2)C1 (configuration not stated),-6.7%,-2.1%
Cc1ccc(Oc2ccccc2NC(=O)C2=COCCO2)cc1,-16.1%,-14.0%
Cc1c(C)c2ccc(OCC(=O)N3CCOCC3)c(C)c2oc1=O,i,-11.4%
CCN(CC(=O)Nc1ccccc1OC)CC(=O)Nc1ccccc1-c1ccccc1,-9.3%,-8.2%
CC1=Nn2c(nc(-c3ccccc3)c2-c2ccccc2)NC(=O)C1Br (configuration not stated),nt,-15.2%
CC(=O)Nc1cccc(-c2ccnc3c2CC(C)(C(=O)NCc2ccco2)O3)c1 (configuration not stated),?,?
CCCn1c(=NC(=O)CCS(=O)(=O)c2ccccc2)sc2cc(S(N)(=O)=O)ccc21,?,-23.9%
Cc1cccc(NC(=O)CSc2nc(-c3cccs3)cc(C(F)(F)F)c2C#N)c1C,-2.2%,2.5%
COc1ccc(C2=C(N3CCN(c4cccc(C)c4)C(C)C3)c3ccccc3C2=O)cc1 (configuration not stated),-14.1%,-1.6%
COc1ccc(CC(=O)Oc2ccc(Br)cc2F)cc1S(=O)(=O)N1CCOCC1,-7.2%,-11.0%
O=c1c2ccccc2nc(SCc2cn3ccsc3n2)n1-c1ccc(F)cc1,nt,?
Cc1ccc(NC(=O)CCN2C(=O)C3CCCCC3C2=O)cc1[N+](=O)[O-] (configuration not stated),-10.3%,-6.5%
O=C(Oc1ccc2ccccc2c1)c1cncc(Br)c1,-13.2%,-1.7%
COc1cc2c(=O)n(CCC(=O)NCC3CCCO3)c(=O)n(CC(=O)Nc3c(C)cccc3C)c2cc1OC (configuration not stated),-4.1%,-2.0%
Cc1ccccc1NC(=O)/C(=C/c1ccco1)c1ccccc1,-24.7%,-6.8%
O=C(NCCc1ccccc1)C1CCC(=O)N(Cc2ccc(Cl)cc2)C1 (configuration not stated),-18.8%,-10.2%

# Compound activity (PubChem BioAssay)
